From PubChem
Six1-Eya2 blk: qHTS Assay for Inhibitors of the Six1/Eya2 Interaction; AlphaScreen GST-Six1/His-Eya2 binding, biochemical; stronger effect = lower value; control for the full effect not named in the record; activity change, % (concentration not given with the values); 360,000 compounds, 0.56% hits; Homeobox protein SIX1 (Homo sapiens) + Protein phosphatase EYA2 (Homo sapiens), …; in the data active = activity change below about -65%; inconclusive = about -30% to -65%; inactive = above about -30%; further: on the % scale 0 is the no-effect control and ±100 the full control effect
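GST-Six1 + His-Eya2 (5X stock: 250/500 nM); Tris pH 8.0, 300 mM NaCl, 0.05% BSA, 0.02% Tween 20; GSH donor/Ni acceptor beads; 1 h 37 °C dark; AlphaScreen readout.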
D2 ag: Beta-Arrestin HTS for Positive Allosteric Modulators of the Human D2 Dopamine Receptor: Agonists; D(2) dopamine receptor (Homo sapiens), P14416; DiscoveRx PathHunter D2 beta-arrestin, luminescence, 90 min; 100% = 57 uM dopamine signal; activation, % (no concentration beside the values); 360,000 compounds, 0.084% hits; AID 624465, 2012; in the data active = activation above about 40%; inconclusive = about 15% to 40%; inactive = below about 15%; further: compound concentration not given in the record; the text of the record calls up to 30% inactive
Target sequence (P14416 whole entry, looked up): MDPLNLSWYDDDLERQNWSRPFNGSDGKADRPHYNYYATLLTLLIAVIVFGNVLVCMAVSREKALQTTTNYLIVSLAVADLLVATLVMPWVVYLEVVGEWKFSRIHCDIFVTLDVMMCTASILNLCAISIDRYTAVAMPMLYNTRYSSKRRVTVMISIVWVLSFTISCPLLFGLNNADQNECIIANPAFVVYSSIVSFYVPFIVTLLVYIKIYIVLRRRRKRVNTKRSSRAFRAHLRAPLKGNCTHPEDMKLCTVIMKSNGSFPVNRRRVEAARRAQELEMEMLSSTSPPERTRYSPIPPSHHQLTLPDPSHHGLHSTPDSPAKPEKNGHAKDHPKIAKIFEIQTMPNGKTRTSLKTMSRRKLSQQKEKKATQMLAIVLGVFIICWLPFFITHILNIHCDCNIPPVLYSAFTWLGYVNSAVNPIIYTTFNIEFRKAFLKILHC
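DiscoveRx PathHunter D2 beta-arrestin cells (2,100/well) attached overnight, then compound-stimulated 90 min at 37 C in HBSS/10 mM HEPES/0.1% Tween-20 buffer; beta-galactosidase complementation read by luminescence after 1 h at ambient temperature. Dopamine 57 uM final (EC100) as control.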
PINK1 expr mod: A Quantitative High throughput Screen to Identify Chemical Modulators of PINK1 Expression; PINK1 immunofluorescence, high-content cytometry, 24 h; Potency, µM (series often up to 76.6 µM), for the others: at the highest dose activation (PINK1 increase), most hits filed as activators; 410,000 compounds, 0.2% hits; active = well fitted activation curve with a large enough effect; inconclusive = small, poorly fitted or top-dose-only effect; inactive = flat fitted curve, though single readings scatter; cell line not stated here;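 further: potency means the concentration at half of the fitted maximal effect; % of control where 0% means no effect; nearly all actives have a fitted effect of over 65% in size; a mitochondrial uncoupler was the plate control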
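Stable cell line treated 24 h with compounds at 5 concentrations (CCCP controls), then fixed and immunostained for PINK1 plus nuclear and cell stains; PINK1 immunofluorescence quantified by laser-scanning microplate cytometry.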
TRPML1 blocker: qHTS for Inhibitors of the Human Mucolipin Transient Receptor Potential 1 (TRPML1). Mucolipin-1 (Homo sapiens), Q9GZU1. TRPML1-inducible cells, Ca2+ dye fluorescence, FDSS; stronger effect = lower value; inhibition of EC80 agonist-evoked calcium signal. activity change, negative = inhibition, % (concentration not given with the values). 390,000 compounds, 0.02% hits. AID 624415, 2012; in the data active means activity change below about -50%; inconclusive means about -30% to -50%; inactive means above about -30%;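 further: stimulus is agonist 54-4 at its EC80 concentration; on the % scale 0 is the no-effect control and ±100 the full control effect; the text of the record puts the active cut at -80%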
Target sequence (Q9GZU1 whole entry, looked up): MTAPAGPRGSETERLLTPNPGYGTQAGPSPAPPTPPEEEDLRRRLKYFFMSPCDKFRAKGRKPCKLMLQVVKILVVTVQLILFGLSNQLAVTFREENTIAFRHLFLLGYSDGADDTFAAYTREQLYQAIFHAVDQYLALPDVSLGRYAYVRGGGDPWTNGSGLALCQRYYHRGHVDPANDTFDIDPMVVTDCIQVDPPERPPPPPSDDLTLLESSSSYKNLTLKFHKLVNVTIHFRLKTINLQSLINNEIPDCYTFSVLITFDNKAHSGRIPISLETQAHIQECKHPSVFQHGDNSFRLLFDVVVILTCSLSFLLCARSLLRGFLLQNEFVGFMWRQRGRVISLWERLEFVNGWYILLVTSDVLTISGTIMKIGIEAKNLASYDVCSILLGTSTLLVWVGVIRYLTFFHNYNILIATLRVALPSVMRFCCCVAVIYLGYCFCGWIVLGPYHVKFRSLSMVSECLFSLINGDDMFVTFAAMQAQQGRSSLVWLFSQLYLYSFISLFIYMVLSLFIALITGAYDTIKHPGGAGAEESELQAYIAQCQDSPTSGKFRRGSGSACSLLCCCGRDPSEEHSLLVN
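TRPML1-DL cells, Tet-induced overnight (~16 h, 37 °C) at 1,500 cells/well, were loaded with Ca8 no-wash dye plus quencher for 45-90 min at room temperature. Compounds were pinned during FDSS kinetic reading; agonist 54-4 at EC80 (4 uM final) then added.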
CtBP-E1A blk: qHTS Assay for Inhibitors of the CtBP/E1A Interaction; AlphaScreen GST-E1A/His-CtBP binding, 1536-well; stronger effect = lower value; control for the full effect not named in the record; activity change, % (concentration not given with the values); 340,000 compounds, 0.49% hits; in the data active means activity change below about -65%; inconclusive means about -30% to -65%; inactive means above about -30%; further: on the % scale 0 is the no-effect control and ±100 the full control effect
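Homogeneous bead-based format: GST-tagged E1A captured on glutathione donor beads, His-tagged CtBP on nickel acceptor beads; compounds precede bead addition by 2 h at 37 °C.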
TRPML1 agonist: qHTS for Agonists of the Human Mucolipin Transient Receptor Potential 1 (TRPML1); 410,000 compounds, 0.12% hits; TRPML1-expressing cells, Ca2+ dye fluorescence, FDSS; host cell line not named in the record; reference of the full effect not given here; AID 624414, 2012; Mucolipin-1 (Homo sapiens), Q9GZU1; activation, % (test concentration not listed); in the data active = activation above about 50%; inconclusive = about 30% to 50%; inactive = below about 30%; further: 0% is about no effect; the text of the record puts the active cut at 80%
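Agonist activity was taken from a 110 s kinetic Ca2+ dye read on the FDSS after pinning compounds onto TRPML1-DL cells. The cells were seeded at 1,500/well with Tet inducer, incubated about 16 h, then dye-loaded at room temperature.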
Starred values were filed as active, the others as inactive; u = inconclusive; x = no result given; [ ] = another dose, or the depositor's remark.

Every second line gives: Six1-Eya2 blk, D2 ag, CtBP-E1A blk, PINK1 expr mod, TRPML1 blocker, TRPML1 agonist
CCCCOc1ccc(C(=O)NCC(=O)N2CC(C)CC(C)C2)cc1 (centres undefined)
  0, -17, 0, -0.6%, 6, -0.1
CCOc1ccccc1OCC(=O)Nc1cc(S(=O)(=O)N2CCCCC2)ccc1OC
  2, -4.4, 7, 5.6%, 6, -0.5
CCOc1ccc(-n2ccnc(SCC(=O)NC3CCCC3)c2=O)cc1
  -3, 0.3, 9, 3.1%, -8, 2.0
Cc1coc2c(C)c3oc(=O)c(CC(=O)N4CCCCC4)c(C)c3cc12
  x, x, x, -0.5%, 21, -0.4
O=C(O)CN1C(=O)C2(OCCCO2)c2ccccc21
  8, -2.0, 6, 9.7%[38.3 µM], -10, 0.7
O=C1c2ccccc2C(O)(c2ncc[nH]2)N1C1CCCCC1 (centres undefined)
  4, -2.2, 10, -1.0%, -10, -0.7
CC(C)(C)S(=O)(=O)N1C[C@@H]2CC/C=C\C/C(c3ccccc3)=C\2[C@H]1CCO
  -1, -0.3, 4, 3.0%, 14, -0.6
O=C(CN1C(=O)NC(c2ccccc2)(c2ccccc2)C1=O)NCCNCCO
  0, -1.0, 4, 1.6%, 5, -0.4
O=C(CSc1ccc2c(c1)OCCO2)Nc1ccc(Cl)cn1
  -1, 1.0, 11, 2.5%, 5, 0.5
C=CCc1cccc2ccc(=O)oc12
  4, -5.9, -4, 1.1%, 10, -0.3
C[C@@H]1CN([C@@H](C)CO)C(=O)CCCn2nncc2CO[C@@H]1CN(C)S(=O)(=O)c1ccccc1C#N
  -14, -11, -8, 1.3%, -8, 0.1
COc1ccc(OC)c(NC(=O)NC2CCCCCCC2)c1
  -10, 15, -4, 6.1%, -10, 0.2
O=C(CN1C(=O)NC2(CCCCCCC2)C1=O)Nc1ccc(Br)cc1
  5, 0.6, -4, 3.1%, -2, 0.3
C=CCOc1c(Br)cc(/C=C2/NC(=S)N(C(C)=O)C2=O)cc1OC
  -3, -3.1, u, -0.7%, -8, 3.0
Cc1ccc(C(=O)N/C(=C\c2cn(C)c3ccccc23)C(=O)NCCCn2ccnc2)cc1
  -7, -0.2, -8, -1.1%, 25, -0.2
CCOC(=O)c1c(NC(=O)CC2Nc3cc(C)c(C)cc3NC2=O)sc(C)c1C (centres undefined)
  5, -0.2, -4, u, -7, 1.1
COc1ccc(-c2csc(Nc3cccc(C)n3)n2)cc1C
  -6, 1.7, 4, 3.6%, -8, -0.2
CCN1CCN(C(=O)NS(=O)(=O)c2ccc(C)cc2)CC1
  6, 3.9, 10, -1.7%, -10, 0.4
O=C(C[C@@H]1C/C=C\CCC(=O)OC[C@@H]2CCCN2C1=O)N[C@@H](CO)Cc1ccccc1
  4, -6.0, -6, 0.6%, -1, 0.0
CC(C)S(=O)(=O)c1csc(C(=O)Nc2ccc(F)cc2)c1N
  -1, -11, 6, 4.6%, 41, 0.5
COC(=O)/C(C#N)=C1/SC=C(C)N1c1ccccc1
  -2, -2.5, -5, -0.9%, 3, 1.0
COc1ccc(NC(=O)CN(C)S(=O)(=O)c2ccccc2)c([N+](=O)[O-])c1
  0, 1.0, 8, -0.8%[38.3 µM], 2, 0.1
CN(C)/N=C/c1ccc([N+](=O)[O-])cc1[N+](=O)[O-]
  u, 1.9, -26, 0.3%, 27, -1.3
O=C(CN1C(=O)C2C3C=CC(C3)C2C1=O)Nc1nc(-c2ccccn2)cs1 (centres undefined)
  -80*, -4.8, -80*, 1.5%, -9, 0.8
OC1(c2ccc(Br)cc2)CCN(Cc2cccc(Br)c2)CC1
  0, 1.1, x, 8.6%, x, x
O=C(Nc1ccccc1Cl)NN1CCCCCC1
  -12, 4.5, -14, 1.0%, -3, -0.5
CC(=O)n1cc([C@@H]2C=C(C(=O)N3CCOCC3)O[C@H](OCCCCO)C2)c2ccccc21
  -4, -2.0, 3, -1.7%, 18, -0.6
COc1ccccc1-c1cccc(-c2nc(C(=O)Nc3nccs3)cc3c2[C@@H](CCO)N(C(C)=O)C3)c1
  u, x, -29, -0.3%, x, 0.4
O=C(CSc1nnc(-c2ccncc2)n1-c1ccc(F)cc1)NC(=O)NCc1ccco1
  0, 0.5, 8, x, -6, 0.9
Cc1c(N=Nc2ccc(O)cc2)c(=O)n(-c2ccccc2)n1C
  -24, -6.3, -7, -2.4%, 28, 0.8

Every second line gives: Six1-Eya2 blk, D2 ag, CtBP-E1A blk, PINK1 expr mod, TRPML1 blocker, TRPML1 agonist
COc1cccc(CC(=O)OC(C)C(=O)Nc2ncc(Cl)cc2Cl)c1 (centres undefined)
  12, -1.6, 1, -0.3%, -13, 0.7
O=C1/C(=C/c2cccc3ccccc23)CCCc2ccccc21
  -4, -5.8, 4, 3.3%, 2, 3.1
Cc1csc2c(=O)sc(NC(=O)c3ccc(F)cc3Cl)nc12
  11, -5.7, -2, 12%, 27, 0.3
Cc1ccc(Cl)c(OCC(=O)Nc2cc(S(=O)(=O)N3CCOCC3)ccc2N2CCCC2)c1
  -19, -3.8, -7, 3.3%, -1, -0.5
Cc1cc(C)cc(N(CCC#N)C(=O)COC(=O)C2CCN(S(=O)(=O)c3ccc(C)c(C)c3)CC2)c1
  -8, -5.4, -3, 0.2%, -11, 0.4
O=C(Nc1ccc2c(c1)OCO2)c1ccc2c(c1)S(=O)(=O)c1ccccc1C2=O
  -8, -2.6, -20, 1.2%, 5, 0.8
CC1CCCCC1NC(=O)c1cccc(NC2=NC3CS(=O)(=O)CC3S2)c1 (centres undefined)
  -1, -3.2, -5, 0.9%, 30, -0.3
COc1ccc(C(CCN(Cc2ccc(OC)c(OC)c2)C(C)=O)C(C)C)cc1 (centres undefined)
  -5, -1.4, 1, 0.9%, 16, 2.2
CCSc1nnc(CCNC(=O)OC(C)(C)C)o1
  3, -2.3, -2, 13%[38.3 µM], -4, -0.7
CC1(c2nnc(-c3cccc(Cl)c3)o2)CC(c2cccc(Cl)c2)=NO1 (centres undefined)
  1, 1.1, 11, -0.2%, 0, -0.7
Clc1cccc(Sc2ccc(-c3ccccn3)s2)c1
  40, -3.3, x, 4.1%, 1, -1.2
Cc1ccc(C(=O)NC(=S)Nc2cccnc2Cl)cc1
  -2, -6.8, -4, 0.1%, -10, 0.1
O=C(O)c1cccc(NS(=O)(=O)c2ccc3c(c2)C(=O)c2ccccc2C3=O)c1
  u, -0.2, x, 0.1%, 2, -0.5
COc1ccccc1-c1cc(C(=O)N2CCCCC2)no1
  10, -7.2, 6, 1.5%, 18, 0.0
CC(=O)Nc1ccc(NC(=O)c2ccc(S(=O)(=O)N(C)c3ccccc3)cc2)cc1
  -7, 3.9, x, 5.0%, 11, -0.9
O=C(C[n+]1cccc(O)c1)Nc1ccc(Br)cc1
  4, -5.6, 1, 2.1%, 2, -1.2
O=C(NNS(=O)(=O)c1ccccc1)Nc1ccc(F)cc1
  21, 1.7, -6, 0.7%, 5, -0.1
CC(C)(C)NC(=O)C1CCN(S(=O)(=O)c2cccc(C(F)(F)F)c2)CC1
  2, 9.1, 9, 2.1%, 4, 0.5
Cc1nnsc1-c1nc2ccccc2[nH]1
  1, -3.9, 2, 2.8%, -2, 0.4
COC(=O)[C@@H](Cc1ccc(O)cc1)NC(=O)[C@H]1CCC(=O)N1C(=O)OCc1ccccc1
  7, 9.0, 7, 0.3%, x, x
Cc1ccc(NC(=O)c2sc3ccccc3c2Cl)cc1
  x, x, x, 0.3%, 28, 3.6
Cc1cc(NC(=O)CCCn2nc([N+](=O)[O-])cc2C)no1
  -2, -4.3, 3, 0.3%, 0, -0.7
COc1ccc(NC(=O)c2cc(-c3ccccc3Cl)on2)cc1OC
  -4, 5.3, -6, 1.5%, 29, 0.8
CC(C)(C)OC(=O)NCCCC[C@H](NC(=O)c1[nH]cnc1C(=O)Nc1ccc(Cl)cc1)C(=O)OC(C)(C)C
  0, -0.8, x, -0.6%, -18, 1.2
c1ccc(COc2ccc(CN3CCN(c4ccccn4)CC3)cc2)cc1
  -5, 47*, -8, -1.3%, -4, -0.1
Cc1oc(-c2ccccc2)nc1C(=O)OCC(=O)NC(C)c1ccccc1 (centres undefined)
  -3, -0.1, 5, -0.7%, 8, 1.0
COC(CNC(=O)c1cn(C)c2ccc(S(=O)(=O)N(C)C3CCCCC3)cc2c1=O)OC
  3, -0.6, -23, -1.0%, -6, 0.5
COc1cc(CN2CCCC(N3CCN(c4ccccc4C)CC3)C2)ccc1O (centres undefined)
  -12, -0.9, -4, -0.4%, 10, 1.5
CC(=O)Nc1ccc(-c2nnn(CC(=O)c3ccccc3)n2)cc1Cl
  5, -5.1, 6, 2.4%, 23, 1.5
COc1ccc(CNC(=O)C2CC(=O)N(C3CCCCC3)C2)cc1 (centres undefined)
  9, -2.2, 3, -0.9%, 6, 0.3

Every second line gives: Six1-Eya2 blk, D2 ag, CtBP-E1A blk, PINK1 expr mod, TRPML1 blocker, TRPML1 agonist
COc1cc(CCC(=O)OCC(=O)Nc2c(F)cccc2F)cc(OC)c1OC
  6, 7.2, 6, 0.0%, 8, 0.9
COC(=O)C1=C(N)OC2=C(C(=O)CC(C)(C)C2)C1c1ccccc1OCC#N (centres undefined)
  13, -3.9, 2, 2.3%, -13, 0.0
CCCCN(C1CCS(=O)(=O)C1)S(=O)(=O)c1cc(C)ccc1C (centres undefined)
  8, -2.3, -2, 1.8%, -1, -1.2
CCOc1ccccc1NC(=O)N1C2CCCC1CC(NC(=O)C1CC1)C2 (centres undefined)
  0, -4.7, 7, -3.1%, 6, -0.6
C#Cc1ccc([C@@H]2C=C(C(=O)N3CCOCC3)O[C@H](OCc3ccc(CO)cc3)C2)cc1
  -2, -2.2, 1, -0.4%, -14, -0.4
CCCS(=O)(=O)Nc1cc(-c2cn3ccc(C)cc3n2)ccc1C
  x, x, x, 1.9%, -1, -0.1
CC(=O)c1ccc(-c2c(CCO)sc3ccccc23)cc1
  -3, x, 2, -0.9%, x, -0.3
CCc1ccc(Nc2n[n+](-c3ccccc3)c(-c3ccc(OCc4ccccc4)cc3)s2)cc1
  -1, -1.6, 6, 5.7%, 41, 0.9

Part of the list above, tab-delimited.
molecule	Six1-Eya2 blk	D2 ag	CtBP-E1A blk	PINK1 expr mod	TRPML1 blocker	TRPML1 agonist
C#Cc1ccc([C@@H]2C=C(C(=O)N3CCOCC3)O[C@H](OCc3ccc(CO)cc3)C2)cc1	-2	-2.2	1	-0.4%	-14	-0.4
CCCCN(C1CCS(=O)(=O)C1)S(=O)(=O)c1cc(C)ccc1C (centres undefined)	8	-2.3	-2	1.8%	-1	-1.2
CCc1ccc(Nc2n[n+](-c3ccccc3)c(-c3ccc(OCc4ccccc4)cc3)s2)cc1	-1	-1.6	6	5.7%	41	0.9
CCOc1ccccc1NC(=O)N1C2CCCC1CC(NC(=O)C1CC1)C2 (centres undefined)	0	-4.7	7	-3.1%	6	-0.6
